Screens deposited in PubChem BioAssay by Broad Institute.
NOMO-1 viab: STK33 inhibitor candidate reducing NOMO-1 cell viability; NOMO-1 AML viability, CellTiter-Glo luminescence, 72 h; inhibition, % (test concentration not listed); actives 7.5% (n = 37,000); AID 2330;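 active = most replicates above 80%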;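 also: wells of about 30 µL received 25 nL stock; 0% = median of vehicle wells and 100% = reference inhibitor level; the first replicate is given; inactives centre near 10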
* marks the source's active call; other numbers are inactive results. The list is partial, so the mix of outcomes need not match the whole.

SMILES	NOMO-1 viab
C[C@@H]1CN([C@@H](C)CO)C(=O)c2cc(NS(=O)(=O)c3cccs3)ccc2O[C@H]1CN(C)Cc1ccc(C(=O)O)cc1	15
COc1ccc(CN(C)C[C@@H]2OCCCC[C@@H](C)Oc3ccc(NC(=O)CCCN(C)C)cc3C(=O)N([C@H](C)CO)C[C@@H]2C)cc1	41
COc1nccc(C(F)(F)F)c1C(=O)NC(=O)Nc1c(C)cccc1C	26
C[C@H](CO)N1C[C@H](C)[C@@H](CN(C)C)Oc2ccc(NC(=O)C3CCCCC3)cc2C1=O	16
C[C@H]1CN([C@@H](C)CO)C(=O)c2cc(NC(=O)NC3CCCCC3)ccc2O[C@@H]1CN(C)C(=O)Nc1ccc2c(c1)OCO2	2
CNC[C@@H]1Oc2ccc(NC(=O)C3CCCCC3)cc2CC(=O)N([C@H](C)CO)C[C@@H]1C	7
COc1ccc(S(=O)(=O)Nc2ccc3c(c2)CC(=O)N([C@H](C)CO)C[C@@H](C)[C@H](CN(C)S(=O)(=O)c2cccs2)O3)cc1	-7
C[C@@H]1CN([C@H](C)CO)C(=O)c2cccc(NC(=O)c3ccc(-c4nccs4)cc3)c2O[C@H]1CN(C)Cc1ccc2c(c1)OCO2	74
CC(=O)OCC(=O)[C@@]1(OC(C)=O)[C@@H](C)C[C@H]2[C@@H]3C[C@H](F)C4=CC(=O)C=C[C@]4(C)[C@@]3(F)[C@@H](O)C[C@@]21C	3
C[C@@H]1CCCCO[C@H](CN(C)Cc2ccc(C(F)(F)F)cc2)[C@@H](C)CN([C@H](C)CO)C(=O)c2cc(NC(=O)Nc3ccccc3)ccc2O1	74
C[C@H]1CN([C@@H](C)CO)C(=O)c2cc(NC(=O)Nc3ccc(F)cc3)ccc2O[C@H]1CN(C)S(=O)(=O)c1cn(C)cn1	1
C[C@H](CO)N1C[C@H](C)[C@H](CN(C)Cc2ccc(Cl)c(Cl)c2)Oc2c(NC(=O)Nc3ccc4c(c3)OCO4)cccc2C1=O	71
C[C@@H]1CN([C@H](C)CO)C(=O)c2cccc(NC(=O)c3ccncc3)c2O[C@H]1CN(C)Cc1ccc(C(F)(F)F)cc1	-3
C[C@H]1CN([C@@H](C)CO)C(=O)c2cc(NC(=O)Cn3cnnn3)ccc2O[C@H]1CN(C)Cc1ccc(C(F)(F)F)cc1	19
COc1ccc(-c2cc(C(F)(F)F)n3ncc(C(=O)NCc4nc5ccccc5[nH]4)c3n2)cc1OC	61
O=C(CNS(=O)(=O)c1ccccc1)Nc1ccccc1Br	20
Cc1cc(C(=O)Nc2cccc3c2O[C@H](CN(C)C(=O)Nc2ccccc2)[C@@H](C)CN([C@@H](C)CO)C3=O)n(C)n1	5
Cc1noc(C)c1NC(=O)Nc1cccc2c1O[C@H](CN(C)Cc1ccc3c(c1)OCO3)[C@H](C)CN([C@@H](C)CO)C2=O	-5
Cc1cc(C)c2c(/N=N/N3CCCCCC3)[nH]nc2n1	17
C[C@@H]1CN([C@H](C)CO)C(=O)c2cccc(NS(=O)(=O)c3ccc(Cl)cc3)c2O[C@@H]1CN(C)C	6
C[C@@H]1CN([C@@H](C)CO)C(=O)c2cccc(NC(=O)C3CCCCC3)c2O[C@@H]1CN(C)S(=O)(=O)c1ccccc1	32
C[C@@H]1CN([C@H](C)CO)C(=O)Cc2cc(NS(=O)(=O)c3cn(C)cn3)ccc2O[C@H]1CN(C)S(=O)(=O)c1ccccc1	-21
COc1ccc(OC)c(NC(=O)COc2ccc3c(C)cc(=O)oc3c2)c1	-6
O=C(Nc1cccc(S(=O)(=O)N2CCOCC2)c1)Nc1cccc(Cl)c1Cl	50
CCOc1cccc(NC(=O)C2CC(=O)N(/N=C(\C)c3ccc(Br)s3)C(=N)S2)c1 (stereo unspecified)	9
CCc1ccccc1NC(=O)COc1cc(O)c2c(=O)cc(-c3ccccc3)oc2c1	-9
COc1ccccc1-n1c(SCC(=O)N2CCOCC2)nc2ccccc2c1=O	17
C[C@H](CO)N1C[C@H](C)[C@@H](CN(C)C(=O)NC2CCCCC2)Oc2c(NS(=O)(=O)c3cccs3)cccc2C1=O	-1
C[C@H](CO)N1C[C@H](C)[C@H](CN(C)Cc2ccc(Cl)c(Cl)c2)Oc2ccc(NC(=O)Nc3ccc(C(F)(F)F)cc3)cc2CC1=O	124*
Cc1ccc(S(=O)(=O)N(C)C[C@H]2Oc3ccc(NC(=O)c4ccncc4)cc3CC(=O)N([C@@H](C)CO)C[C@H]2C)cc1	14
C[C@@H]1CN([C@H](C)CO)C(=O)Cc2cc(N(C)C)ccc2O[C@@H]1CN(C)Cc1ccc(C(F)(F)F)cc1	28
COC(=O)c1ccc(OCC(O)Cn2c(C)nc3ccccc32)cc1 (stereo unspecified)	68
C[C@H](CO)N1C[C@H](C)[C@@H](CN(C)S(=O)(=O)c2cccs2)Oc2ccc(NC(=O)Nc3cccc4ccccc34)cc2C1=O	-1
COC(=O)C[C@H]1[C@]2(C)C3=C(C)[C@H](c4ccoc4)C[C@H]3O[C@@H]2[C@H](OC(C)=O)C2[C@](C)(C(=O)OC)C=CC(=O)[C@@]21C (stereo partly specified)	25
C[C@@H]1CN([C@@H](C)CO)C(=O)c2cc(NC(=O)CCN3CCOCC3)ccc2O[C@H]1CN(C)S(=O)(=O)c1cn(C)cn1	16
Cn1c(SCC(=O)Nc2ccc(Cl)c(Cl)c2)nnc1-c1ccc(Cl)c(Cl)c1	106*
O=C(CCCN1C(=O)c2ccccc2C1=O)Nc1ccc2c(c1)OCCO2	-9
COc1ccc(S(=O)(=O)N(C)CC(=O)Nc2cc(C(F)(F)F)ccc2Cl)cc1	-8
O=C(NCCCn1ccnc1)c1cc(-c2ccccn2)nc2ccc(Br)cc12	41
C[C@@H]1CN([C@@H](C)CO)C(=O)c2cccc(NC(=O)C3CCCCC3)c2O[C@H]1CN(C)Cc1ccc(-c2ccccc2)cc1	81*
C[C@H](CO)N1C[C@H](C)[C@@H](CN(C)CC2CCCCC2)Oc2ccc(NC(=O)CCC(F)(F)F)cc2C1=O	10
CSc1ccccc1NC(=O)C(C)NS(=O)(=O)c1ccccc1 (stereo unspecified)	28
C[C@H]1CN([C@@H](C)CO)C(=O)c2cc(NC(=O)Nc3cccc4ccccc34)ccc2O[C@H]1CN(C)Cc1ccc(-c2ccccc2)cc1	58
C[C@H]1CN([C@@H](C)CO)C(=O)Cc2cc(NC(=O)Nc3ccc(F)cc3)ccc2O[C@@H]1CN(C)Cc1ccncc1	-1
Cc1nn2c(-c3cccc(NC(=O)CSc4nc5ccccc5o4)c3)nnc2c2ccccc12	36
C[C@@H]1CN([C@H](C)CO)C(=O)Cc2cc(NC(=O)C3CC3)ccc2O[C@@H]1CN(C)C(=O)Nc1ccc(F)cc1	8
c1ccc2[nH]c(-c3nc4ccccc4s3)nc2c1	127*
OCc1nc2ccccc2n1CC(O)Cn1ccc2ccccc21 (stereo unspecified)	19
Cc1cc(C)n(C(=O)CN(C)S(=O)(=O)c2ccc([N+](=O)[O-])cc2)n1	9
C[C@H](CO)N1C[C@H](C)[C@H](CN(C)Cc2ccc(-c3ccccc3)cc2)Oc2c(NC(=O)C3CC3)cccc2C1=O	50
O=C(CC1Sc2ncnn2C1=O)Nc1ccccc1 (stereo unspecified)	23
Cc1noc(C)c1NC(=O)Nc1cccc2c1O[C@H](CN(C)Cc1ccc3c(c1)OCO3)[C@@H](C)CN([C@H](C)CO)C2=O	-11
O=c1c(-c2ccc(O)cc2)coc2cc(OC3OC(CO)C(O)C(O)C3O)cc(O)c12 (stereo unspecified)	38
C[C@@H]1CN([C@H](C)CO)C(=O)c2cccc(NC(=O)c3nc4ccccc4s3)c2O[C@@H]1CN(C)C(=O)Nc1ccc(F)cc1	16
N#Cc1c(-c2ccccc2)cc(-c2ccccc2)nc1SCC(=O)O	2
Cc1ccc(N(C(C)C(=O)Nc2c(C)cc(C)cc2C)S(C)(=O)=O)cc1 (stereo unspecified)	19
C[C@H](CCC(=O)O)[C@H]1CCC2[C@@H]3CC[C@@H]4C[C@H](O)CC[C@]4(C)C3C=C[C@@]21C (stereo partly specified)	22
C/C1=C/C[C@H](O)/C(C)=C\[C@H]2OC(=O)[C@@H](C)[C@@H]2CC1	22
Cc1noc(C)c1NC(=O)Nc1cccc2c1O[C@H](CN(C)CC1CC1)[C@H](C)CN([C@@H](C)CO)C2=O	21
CCN(CC)C(=S)SCc1cn2cccc(C)c2n1	50

(continued)
SMILES	NOMO-1 viab
C[C@@H]1CCCCO[C@H](CN(C)S(=O)(=O)c2cn(C)cn2)[C@@H](C)CN([C@H](C)CO)C(=O)c2cc(NC(=O)C3CCCCC3)ccc2O1	-10
C[C@H](CO)N1C[C@H](C)[C@@H](CN(C)Cc2ccc3c(c2)OCO3)Oc2ccc(NC(=O)Nc3cccc4ccccc34)cc2C1=O	43
Cc1noc(C)c1S(=O)(=O)Nc1ccc2c(c1)C(=O)N([C@H](C)CO)C[C@H](C)[C@@H](CN(C)S(C)(=O)=O)O2	22
CNC[C@@H]1Oc2c(NC(=O)C3CC3)cccc2C(=O)N([C@H](C)CO)C[C@@H]1C	-11
C[C@@H]1CN([C@H](C)CO)C(=O)c2cccc(NC(=O)C3CC3)c2O[C@@H]1CN(C)S(=O)(=O)c1ccc(Cl)cc1	2
Cc1ccc(S(=O)(=O)N(C)C[C@@H]2Oc3ccc(N(C)C)cc3C(=O)N([C@H](C)CO)C[C@H]2C)cc1	-1
C[C@@H]1CN([C@H](C)CO)C(=O)Cc2cc(NC(=O)Nc3ccc(F)cc3)ccc2O[C@H]1CN(C)S(=O)(=O)c1cn(C)cn1	6
C[C@H](CO)N1C[C@H](C)[C@H](CN(C)C)Oc2c(NC(=O)Nc3ccc4c(c3)OCO4)cccc2C1=O	-12
N#Cc1ccccc1CSc1nc2ccc(NC(=O)c3ccc(F)cc3)cc2s1	30
C[C@H](CO)N1C[C@H](C)[C@@H](CN(C)C(=O)Nc2ccc3c(c2)OCO3)Oc2ccc(NS(=O)(=O)c3cccs3)cc2C1=O	8
Cc1cc(C)c(C#N)c(Sc2ncnc3c2nnn3Cc2ccccc2)n1	116*
COc1ccc(C)cc1NC(=O)CN(c1ccc(Cl)cc1)S(C)(=O)=O	33
C/C(=N\O)C(=O)Nc1cccc(C(F)(F)F)c1	6
Cc1cc(C)n(-c2ncc(S(=O)(=O)c3ccc(Cl)cc3)c(N)n2)n1	6
COc1ccc(C(=O)NCc2cccnc2)cc1C(=O)NCc1cccnc1	-9
COc1ccc(OC)c(NC(=O)CCn2cnc3ccccc3c2=O)c1	-27
C[C@H]1CN([C@@H](C)CO)C(=O)c2cc(NC(=O)Cc3ccccc3)ccc2O[C@H]1CN(C)C(=O)Nc1ccc2c(c1)OCO2	12
C[C@H](CO)N1C[C@H](C)[C@H](CN(C)S(=O)(=O)c2ccccc2)Oc2c(NC(=O)c3ccc(-c4nccs4)cc3)cccc2C1=O	22
C[C@@H]1CN([C@H](C)CO)C(=O)c2cc(NC(=O)Nc3cccc4ccccc34)ccc2O[C@H]1CN(C)Cc1ccncc1	-14
C[C@H]1CN([C@@H](C)CO)C(=O)c2cc(NC(=O)C3CCCCC3)ccc2O[C@H]1CN(C)Cc1ccc(C(=O)O)cc1	-2
Brc1cccc(Nc2ncnc3cc4nc[nH]c4cc23)c1	27
Cc1noc(C)c1NC(=O)N(C)C[C@H]1Oc2c(NC(=O)c3ccc(-c4nccs4)cc3)cccc2C(=O)N([C@H](C)CO)C[C@H]1C	3
C[C@H](CO)N1C[C@H](C)[C@@H](CN(C)Cc2ccncc2)Oc2c(NC(=O)Nc3ccccc3)cccc2C1=O	9
CN(CC(=O)Nc1ccc(C#N)cc1)S(=O)(=O)c1ccc(Cl)cc1	20
C[C@H]1CN([C@@H](C)CO)C(=O)Cc2cc(NC(=O)Nc3ccccc3)ccc2O[C@@H]1CN(C)S(=O)(=O)c1ccc(Cl)cc1	20
Cc1ccc(S(=O)(=O)N(C)C[C@H]2Oc3ccc(NC(=O)Cn4cnnn4)cc3CC(=O)N([C@@H](C)CO)C[C@H]2C)cc1	16
Cc1ccc([N+](=O)[O-])cc1NC(=O)CN(C1CCCCC1)S(=O)(=O)c1ccc(Cl)cc1	31
Cc1noc(C)c1S(=O)(=O)Nc1ccc2c(c1)CC(=O)N([C@H](C)CO)C[C@@H](C)[C@H](CN(C)Cc1ccc3c(c1)OCO3)O2	4
COC(=O)c1cccc(NC(=O)CSc2nc(-c3ccc(C)cc3)cc(C(F)(F)F)n2)c1	15
C[C@H]1CN([C@@H](C)CO)C(=O)c2cc(NC(=O)Nc3cccc4ccccc34)ccc2O[C@@H]1CN(C)C(=O)NC1CCCCC1	0
